Assay outcomes (PubChem)
NPYLR7 ag: activates Aedes aegypti NPYLR7 receptor; HEK293T NPYLR7/Galpha15, GCaMP6s calcium fluorescence; activation, % at 10 µM; actives 0.15% (n = 270,000); in the data active = activation above about 40%;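 note: 0% = vehicle and 100% = reference agonist at the receptor; some compounds past the cut are filed as inactive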
NPYLR7 ag max-min: also measured in NPYLR7 ag; calls as there; activation, %; measured here: Max-Min RFU normalised activation; some inactives read as strong as hits;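 span of the calcium signal over five minutes; 0% = vehicle and 100% = native peptide agonist; compound fluorescence can raise it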
Starred values were filed as active, the others as inactive; ! = not active in a repeat. The list is partial; the hit share may differ from the screen's.

Below each compound: NPYLR7 ag	NPYLR7 ag max-min
> COc1ccc(Cl)c2sc(N3CCN(C(=O)c4ccc(Br)s4)CC3)nc12
    10	6
> CC1CN(CCCNC(=O)NCc2ccc(-n3ccnc3)cc2)CC(C)O1 (configuration not stated)
    1	5
> CNC(=O)CCN(C)C(=O)[C@@H](N)CC1CCCCC1
    15	4
> COC(=O)c1cc(NC(=O)C2CCC2)cc(C(=O)OC)c1
    -2	9
> COc1cc(NC(=O)c2ccc3c(c2)NC(=O)C(C)S3)cc(OC)c1 (configuration not stated)
    8	4
> NNc1nc2c(c(=O)n1-c1ccccc1)C1(CCCCC1)Cc1ccccc1-2
    11	11
> CCOC(=O)N1CCC(NC(=O)C2CC23CCN(C(=O)CCOc2ccccc2)CC3)CC1 (configuration not stated)
    20	18
> Cc1noc(C)c1CN1CCCc2cc(F)c(F)cc21
    4	5
> O=C(c1cnn(Cc2ccccc2)c1)N1CC[C@H](CO)[C@@H](O)C1
    1	-2
> O=C(CN(c1ccccc1)S(=O)(=O)c1ccccc1)N1CCCCC1
    0	-5
> CC(c1ccon1)N(C)C(=O)c1coc(COc2ccc(F)cc2Cl)n1 (configuration not stated)
    2	-2
> CCCn1c(C2CC(=O)N(CC(C)C)C2)nc2ccccc21 (configuration not stated)
    1	-4
> Cc1nc2c(c(N3CCOCC3)n1)CN(C(=O)c1ccc(Cl)c(Cl)c1)CC2
    -6	-1
> CCOC(=O)c1cc(O)c(C(=O)OCC)s1
    62*!	62*!
> CCCOc1cccc(C(=O)Nc2ccc(Cl)c(-c3nc4ccccc4o3)c2)c1
    1	4
> COc1ncnc(N(C)C)c1NS(=O)(=O)c1ccc(Cl)cc1
    0	22
> O=C(CCc1nc2ccccc2s1)N1CCN(Cc2ccc(C(F)(F)F)cc2)CC1
    5	-1
> CCc1nc2c(OCCC3CCCCC3)cccn2c1N(C)C(=O)C(C)C
    1	5
> CSc1ncccc1C(=O)Nc1ccc(S(=O)(=O)N2CCCCCC2)cc1
    -1	5
> Cc1ccc(-n2nnnc2-c2cn(S(=O)(=O)c3ccc(C)cc3)c3ccccc3c2=O)cc1
    8	9
> c1cc2c(cc1Nc1c3c(nc4nncn14)CCC3)OCCO2
    1	0
> COc1cc(OC)cc(C(=O)N(Cc2c(C)nn(-c3cccc(F)c3)c2N2CCN(C(C)C)CC2)C(C)C)c1
    11	16
> COCc1ccc(C(=O)N(C)C2CCCN(CCCc3ccccc3)C2)s1 (configuration not stated)
    1	-3
> C=CCn1c(C)nn(CN2CCN(c3cccc(Cl)c3)CC2)c1=S
    -6	-10
> O=C(CN1C(=O)NC2(CCCCC2)C1=O)NC1=NCCS1
    1	8
> CC(C)N1CCNC(=O)C1CC(=O)N(C)Cc1ccccc1CN1CCCC1 (configuration not stated)
    8	-2
> Cc1cc(C)c(CNCCCNc2ccncc2)c(C)c1
    3	2
> O=C(N[C@@H]1c2ccccc2C[C@@H]1O)c1cnn2c1CCCC2
    3	0
> CN1CC2(CCCN(Cc3ccsc3)CC2)OC1=O (configuration not stated)
    3	2
> O=C(Cn1nnn(-c2cccs2)c1=O)NC(=O)NCc1ccco1
    5	3
> O=C(CSc1nc(=O)n2cc(Cl)ccc2n1)Nc1ccc(F)cc1F
    12	10
> Cc1cc(C)c(-c2nc(NC(=O)C3=COCCO3)sc2C)cc1C
    4	2
> O=C1OC(c2ccccc2F)=N/C1=C\c1cc(Cl)ccc1O
    1	0
> CCOC(=O)c1c(NC(=O)c2cccc(Cl)c2)sc(C(=O)Nc2ccccc2F)c1C
    5	-2
> Cc1ccc2nc(-c3cccc(Cl)c3)c(NC(=O)C3CCCCC3)n2c1
    -3	4
> O=C(NNS(=O)(=O)Cc1cccc(F)c1)c1ccccc1F
    0	3
> O=C(O)CC1Sc2nnc(C3CC3)n2N=C1c1cccs1 (configuration not stated)
    -2	-4
> Cc1ccc(-n2ccnc2N2CCN(C(=O)c3cc(=O)c4ccccc4o3)CC2)cc1
    2	9
> CCC1CN(C(=O)CNS(C)(=O)=O)CCC(=O)N1Cc1ccccc1 (configuration not stated)
    -2	-13
> CCCC(C)c1nc(N2CCN(C(=O)NC3CCCCC3)CC2)c2c(C)nn(-c3ccc(F)cc3)c2n1 (configuration not stated)
    5	12
> CN1CCN(C(=O)c2nccnc2N)c2cc(F)ccc21
    6	2
> CCOc1ccc(-n2c(=O)c3ccc(Cl)cc3n(CC(=O)N3CCCC3)c2=O)cc1
    -13	-2
> FC(F)(F)CN1CCC(NC(=S)NC2CC3CCC2C3)C1 (configuration not stated)
    -2	-5
> Cc1ccc(C)c(-n2c(C)c(C)n3c4c(=O)n(C)c(=O)n(C)c4nc23)c1
    14	7
> CSc1ccc(CN2C(=O)C(C)Oc3ccc(C#N)cc32)cc1 (configuration not stated)
    6	3
> CCOC(=NC(C)CC)NC(=O)c1ccco1 (configuration not stated)
    8	10
> CC(=O)OC1CCC23CC1(C)CCC2C(C)(C)CC3OC(C)=O (configuration not stated)
    -3	-11
> CCn1c(C)cc(C)c(C(=O)Nc2ccc(NC(=O)CC(C)C)c(OC)c2)c1=O
    3	-3
> CC1=C(C(=O)OC(C)C)C(c2ccc(C(C)C)cc2)N2C(=O)C(C)SC2=N1 (configuration not stated)
    11	11
> CCOC(=O)CCC(=O)Nc1nnc(SCc2cc(OC)cc(OC)c2)s1
    26	38
> CCCc1ccc(-c2cc(N)n(CCO)n2)cc1
    1	0
> O=C1CCCN1CCCNc1ncc(F)c(N2CCOCC2)n1
    1	-5
> COc1ccc(N2CCn3c2nnc(C(=O)NCCO)c3=O)cc1
    1	0
> OC(c1ccccc1)c1nccn1C(F)(F)C(F)F (configuration not stated)
    9	5
> COCCNC(=O)c1ccccc1N1CCC(NS(=O)(=O)c2ccc(C)cc2)CC1
    24	38
> CNCC(=O)NC(c1cccc(C)c1)c1cccs1 (configuration not stated)
    2	-3
> COc1ccc(C(=O)N2CCN(Cc3ccc(-c4ccn[nH]4)s3)CC2)cc1
    2	5
> O=S(=O)(NCc1ccccc1)Nc1ccc(-c2cn[nH]c2)cc1
    -2	-3
> C=CCn1c(=O)c2c(nc3n(Cc4ccccc4)c(C)c(C)n23)n(C)c1=O
    -3	-4
> Cc1ccc2c(c1)CN(CCC(=O)NCC(c1cccnc1)N1CCCCC1)CC(C)O2 (configuration not stated)
    2	1

(next part)
Below each compound: NPYLR7 ag	NPYLR7 ag max-min
> Cc1ccc(C)n1C1CCN(C(=O)NCc2ccc(NC(=O)C(C)C)cc2)CC1
    3	0
> O=C(NCc1ccccn1)c1csc(CSc2nnc(-c3ccccc3Cl)n2-c2ccccc2F)n1
    -10	-7
> COc1ccc(Cl)cc1Cn1c(C)c(C(=O)NCc2ccccc2C(F)(F)F)sc1=O
    10	9
> O=C(CSc1nnc(C2CC2)n1C1CC1)N1CCN(C(=O)c2ccco2)CC1
    9	5
> COc1ccc(CN(C)C(=O)c2cnc3c(c2)c(=O)n(C)c(=O)n3C)cc1F
    8	7
> O=C(C=CNc1ccnn1C1CCCCC1)C(F)(F)F
    0	5
> c1ccc(Nc2nc3ccccc3n3cnnc23)cc1
    5	1
> C=CCN(CC=C)C(=O)CC1C(=O)NCCN1Cc1ccc(Cl)c(F)c1 (configuration not stated)
    1	0
> CN(C)C(=O)C1CCCN1Cn1[nH]c(-c2ccccc2)nc1=S (configuration not stated)
    6	3
> COC(=O)[C@@H]1Cc2nc[nH]c2CN1C(=O)C1CCCCC1
    -11	-19
> O=C1CC2(CCCC2)C(=O)N1CN1CCN(S(=O)(=O)c2ccc(Cl)s2)CC1
    10	14
> CCS(=O)(=O)c1ncc(CN2CCN(C(C)=O)CC2)n1CCc1ccccc1
    14	4
> N#C/C(=C/c1ccccc1C(F)(F)F)c1ccccn1
    0	-1
> COc1ccc(OC2CCN(C3CCCC3)CC2)c(C(=O)NCc2csc(C)n2)c1
    7	4
> CCOC(=O)N1CCN(c2ccc([N+](=O)[O-])cc2Cl)CC1
    4	0
> COc1ccc(NC(=O)Cn2c(=O)n(Cc3ccco3)c(=O)c3sc4ccccc4c32)c(OC)c1
    1	-8
> C#CCN(C(=O)c1cc(=O)[nH]c2cc(F)ccc12)C1CCCCC1
    9	13
> O=C(NCc1ccc(C(=O)N2CCCCC2)cc1)C1CC2(CCNCC2)CN1 (configuration not stated)
    9	5
> COc1ccc(N2CCN(c3cc(C(=O)NCCSC)c4ccccc4n3)CC2)cc1
    13	3
> S=c1[nH]nc2sc3ccccc3n12
    2	2

7 of these compounds in another layout:
| compound | NPYLR7 ag | NPYLR7 ag max-min |
| --- | --- | --- |
| COc1ccc(CN(C)C(=O)c2cnc3c(c2)c(=O)n(C)c(=O)n3C)cc1F | 8 | 7 |
| O=C(C=CNc1ccnn1C1CCCCC1)C(F)(F)F | 0 | 5 |
| c1ccc(Nc2nc3ccccc3n3cnnc23)cc1 | 5 | 1 |
| C=CCN(CC=C)C(=O)CC1C(=O)NCCN1Cc1ccc(Cl)c(F)c1 (configuration not stated) | 1 | 0 |
| CN(C)C(=O)C1CCCN1Cn1[nH]c(-c2ccccc2)nc1=S (configuration not stated) | 6 | 3 |
| COC(=O)[C@@H]1Cc2nc[nH]c2CN1C(=O)C1CCCCC1 | -11 | -19 |
| O=C1CC2(CCCC2)C(=O)N1CN1CCN(S(=O)(=O)c2ccc(Cl)s2)CC1 | 10 | 14 |

Continuation:
Below each compound: NPYLR7 ag	NPYLR7 ag max-min
> O=C(NN=Cc1ccc(Cl)c(Cl)c1)c1cccs1
    -5	-10
> CN1CCN(c2ncccc2CNC(=O)c2ccc3cccnc3n2)CC1
    -4	-8
> S=c1nc(-c2ccncc2)[nH][nH]1
    3	3
> Cc1oc(-c2ccc(Cl)cc2)nc1CN1CCCC(C(=O)N2CCOCC2)C1 (configuration not stated)
    14	8
> CC(c1ccccn1)N(C)Cc1cnc(S(C)(=O)=O)n1Cc1ccccc1F (configuration not stated)
    6	0
> O=C(COc1ccccc1)N1C[C@@H]2C[C@H](C1)c1ccc(NS(=O)(=O)Cc3ccccc3)c(=O)n1C2
    -9	-15
> CCCCN(Cc1cccn1Cc1ccc(Br)cc1)C(=O)CN(C(=O)C1C[C@H]1c1ccccc1)C(C)C (some centres not stated)
    -6	-4
> O=C(c1ccc([N+](=O)[O-])cc1)N1CCCC(OCc2ccc(Br)cc2)C1 (configuration not stated)
    -3	-3
> Cc1ccccc1C1=NOC(CN(Cc2ccc(F)cc2)C(=O)C2CC2)C1 (configuration not stated)
    12	6

Random excerpt: 7 compounds from above, in no set order.
Below each compound: NPYLR7 ag	NPYLR7 ag max-min
> Cc1ccc(-n2nnnc2-c2cn(S(=O)(=O)c3ccc(C)cc3)c3ccccc3c2=O)cc1
    8	9
> CC(=O)OC1CCC23CC1(C)CCC2C(C)(C)CC3OC(C)=O (configuration not stated)
    -3	-11
> OC(c1ccccc1)c1nccn1C(F)(F)C(F)F (configuration not stated)
    9	5
> COC(=O)[C@@H]1Cc2nc[nH]c2CN1C(=O)C1CCCCC1
    -11	-19
> CCOC(=O)CCC(=O)Nc1nnc(SCc2cc(OC)cc(OC)c2)s1
    26	38
> Cc1ccc2c(c1)CN(CCC(=O)NCC(c1cccnc1)N1CCCCC1)CC(C)O2 (configuration not stated)
    2	1
> CN1CC2(CCCN(Cc3ccsc3)CC2)OC1=O (configuration not stated)
    3	2

Part of the list above, as a markdown table.
| compound | NPYLR7 ag | NPYLR7 ag max-min |
| --- | --- | --- |
| O=C(COc1ccccc1)N1C[C@@H]2C[C@H](C1)c1ccc(NS(=O)(=O)Cc3ccccc3)c(=O)n1C2 | -9 | -15 |
| CCCCN(Cc1cccn1Cc1ccc(Br)cc1)C(=O)CN(C(=O)C1C[C@H]1c1ccccc1)C(C)C (some centres not stated) | -6 | -4 |
| O=C(c1ccc([N+](=O)[O-])cc1)N1CCCC(OCc2ccc(Br)cc2)C1 (configuration not stated) | -3 | -3 |
